Assay outcomes (PubChem BioAssay)
VCAM-1 up: boosters of cytokine-driven VCAM-1 levels – cell-based, plate reader, pooled HUVEC, TNFa stimulus (AID 455); HUVEC TNFa-induced VCAM-1 immunofluorescence, plate reader; numbers were filed only for top-ranked candidate wells; augmentation, % at 5 µM; actives 0.2% (n = 10,000);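 active means a compound raising TNF-alpha-driven VCAM-1 surface staining, with its hit status upheld on visual or statistical review; inactive means the rest, including hits rejected on review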;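 further: 0% = TNFa with vehicle and 100% = strongest image-checked hit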
Proteasome disasm: blocks ATP-dependent breakdown of the yeast 26S proteasome; anti-FLAG beads, GFP-proteasome disassembly, flow cytometry; inhibition of disassembly, % (test concentration not listed); actives 0.2% (n = 24,000);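 active means above 40%; inconclusive means likely self-fluorescent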;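 further: plate controls were ATP control with full disassembly for no effect and ATP-gamma-S intact proteasomes for full effect; higher percent means more bead fluorescence retained so stronger block of disassembly; stock transfer was 100 nL into about 10 µL; wells with too few beads may also be inconclusive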
The depositor's hits bear a star; i = inactive; ? = inconclusive; · = no result given.

SMILES	VCAM-1 up	Proteasome disasm
Cc1cc(N2CCOCC2)nc2ccc(NC(=O)CCC(=O)N3CCC4(CC3)OCCO4)cc12	·	0.0
CC(=O)[C@H]1CC[C@H]2[C@@H]3CC[C@H]4C[C@H](O)CC[C@]4(C)[C@H]3C(=O)C[C@]12C	i	-0.8
O=C(CCCC1=NS(=O)(=O)c2ccccc2N1)N1CCC2(CC1)OCCO2	·	-0.2
CCCCn1c(O)c(C(C)=Nc2cccc(C(=O)O)c2)c(=O)[nH]c1=O	i	3.0
O=C(O)c1nonc1-c1nonc1C(=O)O	i	-5.6
CCCS(=O)(=O)N1CCC(C(=O)N2CCC3(CC2)OCCO3)CC1	·	-1.3
CC#CP(=O)(OCC)C(O)(c1ccccc1)C(F)(F)F (stereo not drawn)	i	-1.1
c1cncc(CNC2=NCCCCC2)c1	i	0.7
Cn1c(C(=O)N2CCC(C(=O)N3CCC4(CC3)OCCO4)CC2)cc2sccc21	·	-0.9
NCCc1ccc(O)cc1	i	-1.8
c1ccc2c(c1)OCC(C1=NCCN1)O2 (stereo not drawn)	i	-0.7
CCOC(=O)C1CN(C)CCC1=O (stereo not drawn)	·	-1.8
O=C(COc1ccc2ccccc2c1)N1CCN(C2CCN(Cc3ccccc3)CC2)CC1	i	2.7
O=C(c1ccncc1)C12CN3CN(CN(C3)C1)C2	i	0.5
COc1ccc(CCn2c(O)c(C=NCc3cccnc3)c(=O)[nH]c2=O)cc1OC	i	-2.5
Cc1ccc2cc3cc(C(=O)N4CCC5(CC4)OCCO5)oc3nc2c1	·	1.0
COCCOC(=O)C1=C(C)OC(N)=C(C(=O)OC)C12C(=O)Nc1ccccc12 (stereo not drawn)	·	1.3
CN(C)CCN=Cc1c(O)n(-c2cccc3ccccc23)c(=O)[nH]c1=O	i	3.3
Cc1ccccc1-n1c(O)c(C=NCCN2CCOCC2)c(=O)[nH]c1=O	i	-0.3
Cc1nc2c(-c3ccccc3)c(C)nn2c(C)c1CCC(=O)N1CCC2(CC1)OCCO2	·	-0.2
Cc1ccc(-n2c(O)c(C=NCCN3CCOCC3)c(=O)[nH]c2=O)cc1	i	-0.7
CC(C)[C@@]1(NC(=O)[C@@H]2C[C@@H]3c4cccc5[nH]cc(c45)C[C@H]3N(C)C2)O[C@@]2(O)[C@@H]3CCCN3C(=O)[C@H](Cc3ccccc3)N2C1=O	i	?
CP(C)(=O)CCC(=O)O	i	1.8
CC1=C(C(=O)N2CCC3(CC2)OCCO3)C2(CCC(C)CC2)OC1=O (stereo not drawn)	i	0.9
CC(=NCc1cccnc1)c1c(O)n(Cc2ccccc2)c(=O)[nH]c1=O	i	-1.3
CCn1c(C)c(C(=O)O)c2cc(OC)ccc21	i	2.0
Cc1ccc(Cl)cc1N1CCN(CCN)CC1	·	-0.6
CC1(C)C(c2ccccc2)=NC(c2cccnc2)N1O (stereo not drawn)	i	0.3
Cc1nc2c(c(C)nn2-c2ccccc2)c(C)c1CCC(=O)N1CCC2(CC1)OCCO2	·	4.5
CC1(C)CC(=O)C=C(NCCN2CCN(C(=O)Cc3ccc(Cl)cc3)CC2)C1	i	1.8
C=CCN1C(=O)C2(C(C(=O)OCC)=C(N)Oc3c2c(=O)oc2ccccc32)c2ccccc21 (stereo not drawn)	i	0.2
CCCS(=O)(=O)N1CCCC(C(=O)N2CCC3(CC2)OCCO3)C1 (stereo not drawn)	·	-0.2
CNCCc1c[nH]c2ccccc12	i	0.8
Cc1ccc(C2SCC(=O)Nc3c2c(=O)[nH]n3C2CCOC(C)(C)C2)cc1 (stereo not drawn)	i	0.0
Cc1nc2cc(-c3ccccc3)nn2c(C)c1CCC(=O)N1CCC2(CC1)OCCO2	·	-2.6
COc1cccc(-c2nc(CS(=O)CC(=O)N3CCC4(CC3)OCCO4)c(C)o2)c1 (stereo not drawn)	·	-0.7
Cc1ccc(C)c(NC(=O)CSc2nnc([C@@H](N)Cc3c[nH]c4ccccc34)o2)c1	i	3.7
COc1ccccc1N(CC(=O)NC1CCCCC1)C(=O)c1cnn(C(C)C)c1	i	2.3
O=C(C1CCN(c2nc3ccc(Br)cc3s2)CC1)N1CCC2(CC1)OCCO2	·	-1.9
Cc1c(C(=O)N2CCC3(CC2)OCCO3)sc2ncnc(N3CCN(c4ccccn4)CC3)c12	·	-1.5
Cn1ncnc2c(=O)n(C)c(=O)nc1-2	·	1.8
CCC(=NCCCN1CCOCC1)c1c(O)n(Cc2ccccc2)c(=O)[nH]c1=O	i	0.6
Cc1c2cnn(CC(=O)N3CCC4(CC3)OCCO4)c(=O)c2c(C)n1Cc1ccccc1	·	0.1
Cc1nc2c(-c3ccc(F)cc3)c(C)nn2c(C)c1CCC(=O)N1CCC2(CC1)OCCO2	·	1.0
O=C(C1CCC(=O)N1C1CCCCC1)N1CCC2(CC1)OCCO2 (stereo not drawn)	·	-0.1
Oc1ccc(C2NCc3ccccc3-n3cccc32)cc1Cl (stereo not drawn)	i	1.6
CCOC(=O)C1=C(C)N(C)C2(C)CC1c1ccccc1O2 (stereo not drawn)	·	0.5
Cn1cc(C(=O)N2CCC3(CC2)OCCO3)c2c3ccccc3n(C)c2c1=O	·	0.6
Cn1c(=O)n(CC(=O)N2CCC3(CC2)OCCO3)c(=O)c2ccccc21	·	0.8
O=C(C1CCN(S(=O)(=O)N2CCOCC2)CC1)N1CCC2(CC1)OCCO2	·	-0.4
C=C1CC[C@@]2(O)[C@H]3Cc4ccc(O)c5c4[C@@]2(CCN3CC2CC2)[C@H]1O5	i	0.3
O=c1[nH]c(=O)n(CCc2ccc(F)cc2)c(O)c1C=NCCCn1ccnc1	i	1.6
CC1=C(C(=O)OC(C)C)[C@]2(C(=O)N(CC(N)=O)c3ccccc32)C(C#N)=C(N)O1	i	-0.6
COc1ccccc1N1CCN(C(CNC(=O)Oc2ccccc2)c2cccnc2)CC1 (stereo not drawn)	·	19
Cn1c(C(=O)N2CCC3(CC2)OCCO3)cc2c(=O)n(C)c3ccccc3c21	i	-0.1
O=c1[nH]c(=O)n(-c2ccc(F)cc2)c(O)c1C=Nc1ccccc1N1CCCC1	i	5.3
c1ccc(Cn2ccnc2)cc1	i	0.1
CC(Oc1ccc(-c2ccccc2)cc1)C(=O)O (stereo not drawn)	·	0.0
CCn1nc(-c2ccccc2)nc2c(=O)n(C)c(=O)nc1-2	i	0.9
Cc1cc(N2C(=O)C3CCCN3C2c2ccccc2)no1 (stereo not drawn)	·	-0.6

Carrying on.
SMILES	VCAM-1 up	Proteasome disasm
Cc1ccc2c(c1)[C@@H]1CN(C)CC[C@@H]1N2C(=O)Nc1cccc(C(F)(F)F)c1	i	-2.2
COC(=O)C1C2c3ccccc3OC1(C)N=c1s/c(=C/c3cnn(C)c3C)c(=O)n12 (stereo not drawn)	i	-1.9
COc1ccc(C(=O)C(C)(C)NO)cc1	i	-3.0
Cc1cccn2c(=O)c3cc(C(=O)N4CCC5(CC4)OCCO5)n(C)c3nc12	·	-1.5
Cc1nc2nc(C)c(CCC(=O)N3CCC4(CC3)OCCO4)c(C)n2n1	·	-0.4
COc1ccc(C2C(C(=O)N3CCC4(CC3)OCCO4)c3cc(OC)c(OC)cc3C(=O)N2C)cc1 (stereo not drawn)	·	-0.9
Cc1[nH]c2ccccc2c1C1=CCNCC1	·	?
Cc1ccc(S(=O)(=O)NCC2CCC(C(=O)N3CCC4(CC3)OCCO4)CC2)cc1 (stereo not drawn)	·	-0.5
CCOP1(=S)Oc2cc3c(cc2C(C(=O)OC)(C(F)(F)F)O1)OCO3 (stereo not drawn)	·	-2.1
C[N+]1(C)CCN(c2ccccc2)CC1	i	0.2
CCCCn1c(O)c(C(CC)=Nc2cccc(C(=O)O)c2)c(=O)[nH]c1=O	i	-1.1
Cc1ccccc1NC1=NCCCS1	i	1.0
COC(=O)C1C2c3ccccc3OC1(C)N=c1s/c(=C/c3cnn(C)c3)c(=O)n12 (stereo not drawn)	·	-0.2
O=C(c1sc2ccccc2c1Cl)N1CCC2(CC1)OCCO2	i	-0.3
CC1CCC(C(=O)NC(C(=O)N2CCC3(CC2)OCCO3)C(C)C)CC1 (stereo not drawn)	i	-0.2
O=C1C2CCCN2C(c2cccnc2)N1c1ccc(Cl)cc1 (stereo not drawn)	·	2.7
Cc1ccc(OCC(=O)NCCN2CCN(C(=O)COc3ccc(C)cc3)CC2)cc1	i	-5.0
CCc1nnc(NC(=O)CCc2nc(C3=CCN(C)CC3)no2)s1	·	1.0
CC(=O)C1C2c3ccccc3OC1(C)N=c1s/c(=C/c3cn(C)nc3C)c(=O)n12 (stereo not drawn)	·	1.0
COc1cc2c(cc1OC)C(C(=O)N1CCC3(CC1)OCCO3)C(c1ccccc1F)N(C)C2=O (stereo not drawn)	·	2.3
Cc1cc(N2C(=O)C3CCCN3C2c2ccc(Cl)c(Cl)c2)no1 (stereo not drawn)	·	0.7
c1ccc(C2NCc3ccccc3-n3cccc32)cc1 (stereo not drawn)	i	-0.5
COc1ccc(CN2CCN(c3ccccc3F)CC2)c(OC)c1	i	-1.0
CCOC(=O)C(O)(c1ccc(N(CC)S(=O)(=O)c2ccccc2)cc1)C(F)(F)F (stereo not drawn)	·	1.9
Cn1c2ccccc2c2c(C(=O)N3CCC4(CC3)OCCO4)cn(C3CCCC3)c(=O)c21	·	-1.2
CNP1(NC)=NC(C(F)(F)F)=NC(C(F)(F)F)=N1	i	-0.5
CCC(=O)N1CC(=O)Nc2ccc(Cl)cc2C1c1ccc(F)cc1 (stereo not drawn)	·	3.8
CC(NC(C)(C)C)C(=O)c1cccc(Cl)c1 (stereo not drawn)	i	-0.2
OCCOCC#CCN1CCOCC1	i	-5.2
Cc1ccc(C(=O)C2CN3CCC2CC3)cc1 (stereo not drawn)	i	0.9
O=C(NCC(c1cccnc1)N1CCN(c2ccc(F)cc2)CC1)Oc1ccccc1 (stereo not drawn)	·	1.8

Filtered by structure: the entries above containing sulfur
SMILES	VCAM-1 up	Proteasome disasm
O=C(CCCC1=NS(=O)(=O)c2ccccc2N1)N1CCC2(CC1)OCCO2	·	-0.2
CCCS(=O)(=O)N1CCC(C(=O)N2CCC3(CC2)OCCO3)CC1	·	-1.3
Cn1c(C(=O)N2CCC(C(=O)N3CCC4(CC3)OCCO4)CC2)cc2sccc21	·	-0.9
CCCS(=O)(=O)N1CCCC(C(=O)N2CCC3(CC2)OCCO3)C1 (stereo not drawn)	·	-0.2
Cc1ccc(C2SCC(=O)Nc3c2c(=O)[nH]n3C2CCOC(C)(C)C2)cc1 (stereo not drawn)	i	0.0
COc1cccc(-c2nc(CS(=O)CC(=O)N3CCC4(CC3)OCCO4)c(C)o2)c1 (stereo not drawn)	·	-0.7
Cc1ccc(C)c(NC(=O)CSc2nnc([C@@H](N)Cc3c[nH]c4ccccc34)o2)c1	i	3.7
O=C(C1CCN(c2nc3ccc(Br)cc3s2)CC1)N1CCC2(CC1)OCCO2	·	-1.9
Cc1c(C(=O)N2CCC3(CC2)OCCO3)sc2ncnc(N3CCN(c4ccccn4)CC3)c12	·	-1.5
O=C(C1CCN(S(=O)(=O)N2CCOCC2)CC1)N1CCC2(CC1)OCCO2	·	-0.4
COC(=O)C1C2c3ccccc3OC1(C)N=c1s/c(=C/c3cnn(C)c3C)c(=O)n12 (stereo not drawn)	i	-1.9
Cc1ccc(S(=O)(=O)NCC2CCC(C(=O)N3CCC4(CC3)OCCO4)CC2)cc1 (stereo not drawn)	·	-0.5
CCOP1(=S)Oc2cc3c(cc2C(C(=O)OC)(C(F)(F)F)O1)OCO3 (stereo not drawn)	·	-2.1
Cc1ccccc1NC1=NCCCS1	i	1.0
COC(=O)C1C2c3ccccc3OC1(C)N=c1s/c(=C/c3cnn(C)c3)c(=O)n12 (stereo not drawn)	·	-0.2
O=C(c1sc2ccccc2c1Cl)N1CCC2(CC1)OCCO2	i	-0.3
CCc1nnc(NC(=O)CCc2nc(C3=CCN(C)CC3)no2)s1	·	1.0
CC(=O)C1C2c3ccccc3OC1(C)N=c1s/c(=C/c3cn(C)nc3C)c(=O)n12 (stereo not drawn)	·	1.0
CCOC(=O)C(O)(c1ccc(N(CC)S(=O)(=O)c2ccccc2)cc1)C(F)(F)F (stereo not drawn)	·	1.9

This is a subset (hit frequency here may not be typical).
